# Vaccinia Venus = vaccinia inhibition (Venus reporter); AID 720580; Potency, µM (top dose mostly 36.5 µM), without a hit: at the highest dose activity change, negative = inhibition, usual class: inhibitors; 330,000 compounds, 0.46% hits; Vaccinia virus Venus reporter expression, fluorescence; active means well fitted inhibition curve with a large enough effect; inconclusive means small, poorly fitted or top-dose-only effect; inactive means no such curve, though single readings can be large or run the other way; tested in A549 cells; note: nearly all actives have a fitted effect of over 30% in size; inactives centre near -10
# VACV mCherry inh = inhibitors of vaccinia virus infection (mCherry reporter signal). AID 720579. Potency, µM (top dose mostly 36.5 µM), inactives show at the top dose activity change, negative = inhibition, most hits filed as inhibitors. Vaccinia virus mCherry reporter infection, fluorescence; about a quarter of the inactives have no number. 310,000 compounds, 0.63% hits; active = well fitted inhibition curve with a large enough effect; inconclusive = small, poorly fitted or top-dose-only effect; inactive = no such curve, though single readings can be large or run the other way; tested in A549 cells; note: nearly all actives have a fitted effect of over 35% in size; inactives centre near -10
# * marks the source's active call; other numbers are inactive results; i = inactive; ? = inconclusive; . = not tested or not shown; [ ] = another dose, or the depositor's remark. % is set by controls: 0 for no effect and ±100 for the full control effect; potency is the fitted concentration of half-maximal effect.
SMILES,Vaccinia Venus,VACV mCherry inh
Cc1cc(C)cc(OCC(=O)N/N=C\c2cn(C)nc2C)c1,-11%,-8%
CCC(C(=O)N1CCN(c2ccc(OC)cc2)CC1)n1nc(C)n2c(cc3occc32)c1=O (stereo not drawn),?,?
CCOC(=O)C1CCCN(c2c(Nc3ccc(OCC)cc3)c(=O)c2=O)C1 (stereo not drawn),-2%,4%
Cn1c(SCc2ccc(F)cc2Cl)nc2ccccc2c1=O,-25%,-28%
O=C(Nc1ccc(NC(=O)C2CC2)nc1)c1cccs1,-6%,i
CN=C(Nc1cc(C)nn1-c1ccccc1)c1ccccc1,-10%,i
Fc1ccc(-n2ncc3c(N4CCCCCC4)ncnc32)cc1,-4%,-1%
C=CCNc1cc(C)oc(=O)c1C(=O)CCC,-1%,i
O=C(Cc1ccc(Cl)cc1)NNC(=O)Nc1cccc2ccccc12,?,.
CC(C)(C)C(=O)Nc1ccc(C(=O)NCc2cccnc2)cc1,-9%,.
O=C(COC(=O)c1cccnc1Cl)NC1CCCCCC1,-18%,i
Cc1ccccc1OCc1nnc(SCc2cc(=O)c3ccccc3[nH]2)n1C,-18%,-25%
CCN(CC)C1=N/C(=C\c2ccc(OC)cc2)C(=O)N1c1ccccc1,14%,?
Cc1ccccc1CC1(CO)CCCN(C(=O)c2ccoc2)C1 (stereo not drawn),-11%,i
COc1ccc(CCNC(=O)CN(C)S(=O)(=O)c2ccc(Br)s2)cc1OC,-13%,i
Cc1cc(C)n(Cc2cccc(C(=O)NCC3Cc4cccc(-c5ncccn5)c4O3)c2)n1 (stereo not drawn),-4%,-6%
CC(NC(=O)c1ccc2c(c1)N(Cc1ccc(Cl)cc1)C(=O)c1ccccc1S2(=O)=O)c1ccccc1 (stereo not drawn),-4%,8%
CN(C)CCCNC(=O)c1cc(C(=O)c2c(Cl)cccc2Cl)c[nH]1,-18%,-20%
COc1ccc(CNC(=O)C(=O)NCC(c2cccnc2)N2CCN(c3ccccc3F)CC2)cc1 (stereo not drawn),?,?
COc1ccccc1C(=O)Nc1ccc2c(c1)CCCN2C(=O)c1ccccc1,-15%,-18%
Cc1nnc(SCCN2C(=O)c3ccccc3C2=O)[nH]c1=O,-14%,.
Cc1ccc2cc(CN(Cc3ccco3)C(=O)NCc3ccccc3)c(=O)[nH]c2c1C,?,.
NS(=O)(=O)c1ccc(CCNC(=O)C2(S(=O)(=O)c3ccc(Cl)cc3)CC2)cc1,-12%,-26%
CCn1nc(C)cc1C(=O)Sc1cccc(Br)c1,-9%[7.34 µM],-2%[7.34 µM]
Cc1cc(N(C)/N=C/c2ccccc2O)nc(-c2ccccc2O)n1,0%,i
O=C(Cc1cccs1)N(CC1CCCO1)C1(C(=O)NC2CCCC2)CCCCC1 (stereo not drawn),6%,-2%
Cn1ccnc1SCC(=O)c1ccc([N+](=O)[O-])cc1,-5%,-15%
COc1ccc(NC(=O)CSc2ccc3ccccc3c2)cc1S(=O)(=O)N1CCCCC1,?,-23%
Cc1cc(C(F)F)n2nc(C(=O)O)nc2n1,?,-2%
CN(C)CCOCCOc1ccc(Cl)cc1C(C)(C)C,-13%,-4%
CCn1c(=O)c(C(=O)NNC(=O)c2ccc(Cl)cc2Cl)c(O)c2ccccc21,-1%,-11%
CC(C)=CCN1CCC2(CCc3ccccc32)CC1,-10%,-2%
Cc1ccc2nc(-c3ccc(F)cc3)c(Cc3ccccn3)n2c1,-3%,13%
CCc1nnc(NC(=O)CN2CCN(c3cccc(OC)c3)CC2)s1,0%,.
C=C(C)CSc1nc2ccccc2c(=O)n1-c1c(C)n(C)n(-c2ccccc2)c1=O,-8%,i
C=C(C)COc1ccc(-c2[nH]ncc2-c2ccccc2OC)c(O)c1,?,-23%
COc1ccc(NC(=O)c2ccccc2[N+](=O)[O-])cc1,-7%,-13%
O=C(NCc1cccc(Br)c1)c1cnn(-c2ccc(F)cc2)c1-n1cccc1,7%,-7%
CC(C)NC(=O)C1(C)CCCN1C(=O)c1ccccc1Br (stereo not drawn),1%,25%
Cc1ccc(NC(=O)c2cc(C)n(-c3ccccc3)c2C)cc1,-14%,-7%

# Single entries from the entries so far:
# Cn1ccnc1SCC(=O)c1ccc([N+](=O)[O-])cc1 in VACV mCherry inh is entered as -15%
# Cc1ccc2nc(-c3ccc(F)cc3)c(Cc3ccccn3)n2c1 in VACV mCherry inh is entered as 13%
# Cc1ccc(NC(=O)c2cc(C)n(-c3ccccc3)c2C)cc1 in VACV mCherry inh is entered as -7%
# CC(C)NC(=O)C1(C)CCCN1C(=O)c1ccccc1Br (stereo not drawn) in Vaccinia Venus is entered as 1%
# C=C(C)COc1ccc(-c2[nH]ncc2-c2ccccc2OC)c(O)c1 in VACV mCherry inh is entered as -23%
# COc1ccc(NC(=O)CSc2ccc3ccccc3c2)cc1S(=O)(=O)N1CCCCC1 in VACV mCherry inh is entered as -23%

# Ordered by count of non-hydrogen atoms (lowest first): some entries from above
SMILES,Vaccinia Venus,VACV mCherry inh
CC(C)=CCN1CCC2(CCc3ccccc32)CC1,-10%,-2%
C=C(C)COc1ccc(-c2[nH]ncc2-c2ccccc2OC)c(O)c1,?,-23%
NS(=O)(=O)c1ccc(CCNC(=O)C2(S(=O)(=O)c3ccc(Cl)cc3)CC2)cc1,-12%,-26%

# New compounds follow
SMILES,Vaccinia Venus,VACV mCherry inh
Nc1cc(C(=O)OCC(=O)NNC(=O)c2ccccc2F)ccc1Cl,0%,-19%
COc1ccc(NC(=O)CSc2nnc(N)n2CC(=O)Nc2ccc(OC)cc2)cc1,-4%,-8%
O=C(c1coc2ccccc2c1=O)N1CCN(c2cccc(C(F)(F)F)c2)CC1,-26%,-33%
C[C@]12CCC(=O)C=C1CCc1ccc(O)cc12,-10%,-13%
CCCN(CCC)S(=O)(=O)c1ccc(C(=O)NNC(=O)c2cc(OC)c(OC)c(OC)c2)cc1,-8%,i
CCOC(=O)CNC(=S)N(Cc1ccccc1)Cc1cccnc1,-3%,1%
CCN(Cc1ccncc1)C(=O)c1cc(COc2c(F)cccc2F)on1,-18%[7.34 µM],-1%[7.34 µM]
Nc1nc(Sc2ccc([N+](=O)[O-])c3nonc23)c2[nH]cnc2n1,141%[activator],?
O=C(c1ccccc1)C1CCN(CC(=O)N2CCN(c3ccccc3)CC2)CC1,-17%,-14%
CC(=O)N1CCCc2ccc(NS(=O)(=O)c3ccccc3)cc21,-10%,i
COC(=O)c1nnn(-c2nonc2N)c1CSc1ccccn1,4%,-9%
CC(C)C[C@@H]1CC2=C(C(=O)OC(C)(C)O2)[C@H](c2ccc(Cl)cc2)O1,4%,12%
OCCN(CCO)CC(O)CN(c1ccccc1)c1ccccc1 (stereo not drawn),1%,-13%
CCCC(NC(=O)c1ccco1)c1nc2ccccc2[nH]1 (stereo not drawn),2%,-5%
O=C1CCC(NC(=O)c2ccccc2)C(=O)N1 (stereo not drawn),-12%,i
COc1cccc(NC(=O)Nc2ccc(F)cc2)c1,-21%,-30%
O=C(Nc1ccccc1)Nc1ccc(Oc2ncnc3cc(Cl)ccc23)nc1,9%,-8%
CSc1ccccc1N=CC1=C(O)CC(C)(C)CC1=O,-10%,-19%
O=C(CSc1n[nH]c(-c2ccccc2)n1)N1CCCCC1,1%,2%
CC(=O)N1CCN(c2ccc([N+](=O)[O-])c(NCc3cccnc3)c2)CC1,-6%,-15%
O=S(=O)(c1ccc2ccccc2c1)N1CCN(C(=S)Nc2ccccc2F)CC1,-23%,-9%
O=C(N/N=C/c1ccc(-c2ccccc2[N+](=O)[O-])o1)c1cccnc1,22%,8%
CC(C)[C@H](NS(=O)(=O)c1ccc2c(c1)OCCO2)C(=O)OCC(=O)Nc1cccc(Cl)c1Cl,-14%,-20%
Cc1cc(=O)c(C(=O)O)nn1-c1cccc(C(F)(F)F)c1,-16%,-2%
CCCCC/C=C\C/C=C\CCCCCCCC(=O)O[C@@H](CO)COC(=O)CCCCCCCCCCCCCCCCC,-21%[3.33 µM],-16%[3.33 µM]
C#CCOCCOCCOCCNc1nc(N2CCN(C(=O)[C@H](C(C)C)n3cc(CCO)nn3)CC2)nc(N2CCN(C(=O)[C@H]([C@@H](C)CC)n3cc(CCCCN)nn3)CC2)n1,-14%,-16%
COC(=O)c1[nH]c2cccc(OC)c2c1NC(=O)CN1CCC(C(N)=O)(N2CCCCC2)CC1,-5%,-11%
CCCCC1(C(=O)OC)NC(c2ccc(O)cc2)C2C(=O)N(c3ccccc3)C(=O)C21 (stereo not drawn),-11%,i
Cc1[nH]n2c(=O)cc(-c3ccc([N+](=O)[O-])cc3)nc2c1-c1ccccc1,-14%,-16%
Cc1ccc(C(=O)Nc2cccc(C(F)(F)F)c2)cc1NC(=O)c1c[nH]c2cc(C(F)(F)F)ccc2c1=O,-8%,-11%
CCCCNC(=O)CS(=O)Cc1nc(-c2ccc(C)cc2)oc1C (stereo not drawn),-22%,-11%
CCC(C(=O)NC1CCCCC1)N(Cc1cccs1)C(=O)c1snc(C(N)=O)c1N (stereo not drawn),-4%,i
CCN1CCN(C(c2cccs2)C(C)NC(=O)c2cccc(OC)c2)CC1 (stereo not drawn),-3%,-14%
Cc1cc(NC(=O)C2CC(=O)N(c3cccc(C)c3C)C2)no1 (stereo not drawn),-2%,-12%
CCC(C(=O)NCc1ccccc1OC)n1nc(C)n2c(cc3occc32)c1=O (stereo not drawn),-20%[7.34 µM],-19%[7.34 µM]
COc1ccc(NC(=O)CC(NCc2ccccn2)C(=O)O)cc1 (stereo not drawn),-4%,i
O=C(O)CCC(=O)Nc1ccc(-c2nnc(-c3ccco3)o2)cc1,-4%,-10%
CCC1CCC(C(=O)NC(C(=O)Nc2cccc(OC)c2)C(C)C)CC1 (stereo not drawn),-20%,-19%
CC(=O)OC1CC(OC(C)=O)[C@]2(C)C(CC(=O)[C@]3(C)C2CC[C@@]2(C)C(c4ccoc4)OC(=O)C4O[C@@]423)C1(C)C (stereo partly drawn),-4%,-10%
CCCCN(C)CCNC(=O)c1ccc(Cn2c(=S)[nH]c3ccc(Br)cc3c2=O)cc1,-12%,i
COc1ccc(-c2cc(C(F)(F)F)c(C#N)c(SCC(=O)Nc3ccc(F)cc3)n2)cc1,1%,-5%
Cc1cc(C(=O)COC(=O)/C=C/c2cccc(Br)c2)c(C)n1C,-19%,-5%
CC1(C(=O)NS(=O)(=O)c2ccc(F)cc2F)CCN1C(=O)Cc1ccc(Cl)cc1Cl (stereo not drawn),15%,i
CC1=C(C(=O)N2CCCCCC2)CC(CC(=O)NC2CCCC2)C(=O)N1CCC1=CCCCC1 (stereo not drawn),-2%,0%
COc1ccccc1NC(=O)Cn1c(=O)n(-c2cccc(C(C)=O)c2)c(=O)c2c3c(sc21)CN(C(C)=O)CC3,11%,-13%
O=C(Cn1ccc2ccccc2c1=O)Nc1ccc2c(c1)OCO2,-6%,-13%
CCc1ccc(NC(=O)Cn2ccn(-c3ccc(C)c(C)c3)c(=O)c2=O)cc1,4%,0%
C/C(N)=C(/C#N)C(=O)COC(=O)c1ccccc1O,-12%,-15%
CCOc1ccccc1N(C)C(=O)c1cc(S(=O)(=O)NCc2ccc(C)cc2)ccc1F,-1%,-15%
CCOc1ccccc1Nc1ncnc2ccc(Br)cc12,-8%,-13%
CCOC(=O)c1cccc(NC(=O)CSc2ncc3c(n2)-c2ccccc2N(C)S3(=O)=O)c1,2%,-12%
COc1ccccc1-n1c(C)nc2cc(C(=O)NCc3ccc4c(c3)OCO4)ccc21,1%,-8%
CCc1nn(CC(=O)NCCCN(Cc2ccccc2)C(C)C)c(=O)c2cc3sccc3n12,-9%,-15%
CC(O)CNCCNCc1cccs1 (stereo not drawn),-3%,i
CC(C)c1ccc(NC(=O)COC(=O)CCC(=O)c2cccs2)cc1,-5%,-15%
CCN(C(=O)CSc1nc2ccccc2c(=O)n1-c1ccc(C)cc1)C1CCS(=O)(=O)C1 (stereo not drawn),-7%,-14%
CN1C(=O)COc2ccc(C(=O)c3ccccc3C(=O)O)cc21,-11%,i
COc1ccc(N2CCN(c3cc(C)c4ccccc4n3)CC2)cc1,-16%,-1%
COc1ccc(CNc2nc(-c3ccccc3CN(C)C)nc3ccccc23)c(OC)c1,?,?
CCCCN1C(=O)C(CC(=O)NCc2cccs2)CC(C(=O)N(C(C)C)C(C)C)=C1C (stereo not drawn),-11%,-7%

# A second format for 4 compounds above.
smiles | Vaccinia Venus | VACV mCherry inh
C/C(N)=C(/C#N)C(=O)COC(=O)c1ccccc1O | -12% | -15%
CCOc1ccccc1Nc1ncnc2ccc(Br)cc12 | -8% | -13%
O=C(Cn1ccc2ccccc2c1=O)Nc1ccc2c(c1)OCO2 | -6% | -13%
CCCCN1C(=O)C(CC(=O)NCc2cccs2)CC(C(=O)N(C(C)C)C(C)C)=C1C (stereo not drawn) | -11% | -7%

# Next section.
SMILES,Vaccinia Venus,VACV mCherry inh
CC1=NN(C(C#N)c2ccccc2O)C(C)(C)C1 (stereo not drawn),-9%,-9%
O=C(Nc1ccc(CN2CCCCC2)cc1)c1cc(Br)ccc1Cl,-17%,-11%
COC(=O)c1ccc(C(=O)OC)c(NC(=O)c2cnn3c(C(F)F)cc(-c4ccc(C)cc4)nc23)c1,-3%,-12%
CC(Nc1ccc(S(=O)(=O)N2CCN(C)CC2)cc1[N+](=O)[O-])c1ccccc1 (stereo not drawn),-30%,-16%
Cc1cc(C)n(-c2nc3sc4c(c3c3nnc(SC(C)C)n23)CC(C)(C)OC4)n1,-8%,i
Cc1cc(C)cc(NC(=O)N2CCCN(Cc3c(F)cccc3Cl)CC2)c1,-2%,-30%
CCC(C)NC(=S)N1CCN(Cc2ccccc2)CC1 (stereo not drawn),-1%,-15%
Cc1nn(C)c(Cl)c1NC(=O)OCc1ccc(Cl)cc1Cl,-22%,-10%
CC(=O)Oc1ccc(N(C(C)=O)S(=O)(=O)c2ccc(Cl)cc2)c2ccccc12,-11%,?

# Compound activity (PubChem BioAssay)
